High-throughput results as filed in PubChem BioAssay.
Vaccinia stage: blocks a specific stage of Vaccinia orthopoxvirus infection, primary screen, cell-based, single point; Vaccinia-infected cells, mCherry/Venus stage reporter fluorescence; hits give low values; some inactives read as strong as hits; hit rate 0.01% among 89,000; activity change (mCherry), % (test concentration not listed);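 active = mCherry past -33% and 40 or more points under the early reporter, replicates agreeing; inconclusive = past -33% without that gap or agreement; tested in A549 cells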;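 note: scaled between vehicle wells and reference inhibitor wells; 23 nL library stock went into each well; one replicate is shown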
Vaccinia stage Venus: further read-out of Vaccinia stage, marked with its call; activity change (Venus), %; measured here: Venus reporter, other viral stage;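 negative = less Venus signal; first of two replicates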
Active calls of the source: *; ? = inconclusive; nt = not tested or not shown; & = joins results of further samples.

#	SMILES	Vaccinia stage	Vaccinia stage Venus
1	Cc1noc(C)c1S(=O)(=O)N(C)C[C@H]1Oc2ccc(NS(=O)(=O)c3ccccc3)cc2CC(=O)N([C@@H](C)CO)C[C@@H]1C	1.4	13.0
2	CC(C)NC(=O)Nc1ccc2c(c1)CC(=O)N([C@@H](C)CO)C[C@H](C)[C@@H](CN(C)C)O2	16.7	6.9
3	C[C@@H]1CN([C@@H](C)CO)C(=O)Cc2cc(NC(=O)CCCN(C)C)ccc2O[C@@H]1CN(C)C	11.6	6.0
4	O=C(C[C@H]1C[C@H]2c3cc(NS(=O)(=O)c4ccc(F)cc4)ccc3O[C@H]2[C@@H](CO)O1)N1CCCCC1	-5.8	-5.5
5	CO[C@H]1CN(C)C(=O)c2ccc(NC(=O)Nc3cccc(Cl)c3)cc2OC[C@@H](C)N(C(=O)Nc2c(C)noc2C)C[C@@H]1C	-3.1	-1.3
6	CCCN1[C@H](C(=O)NCC2CC2)[C@@H](CO)[C@@H]2Cn3c(ccc(/C=C/c4ccccc4)c3=O)[C@@H]21	?	nt
7	O=C(Cc1ccccn1)N1CC(=O)N2[C@H](CO)[C@@H](c3ccc(C#CC4CC4)cc3)[C@H]2C1	-5.2	-0.2
8	C[C@@H]1CN([C@@H](C)CO)C(=O)c2cc(NS(=O)(=O)c3ccccc3)ccc2O[C@H]1CN(C)Cc1ccc(C(=O)Nc2ccccc2N)cc1	-1.5	-0.6
9	Cc1noc(C)c1S(=O)(=O)N(C)C[C@H]1Oc2ccc(NS(=O)(=O)c3cccs3)cc2CC(=O)N([C@H](C)CO)C[C@@H]1C	8.7	0.3
10	O=C(C[C@H]1C[C@@H]2c3cc(NS(=O)(=O)c4ccc(F)cc4)ccc3O[C@@H]2[C@H](CO)O1)NCc1ccncc1	7.5	11.2
11	CCS(=O)(=O)Nc1ccc2c(c1)C(=O)N(C)[C@@H]1CC[C@@H](CC(=O)NCCCN3CCOCC3)O[C@H]1CO2	0.1	13.3
12	CCCC(O)C#Cc1cnc2c(c1)C(=O)N([C@H](C)CO)C[C@H](C)[C@H](CN(C)S(=O)(=O)c1ccc(C#N)cc1)O2 (some centres undefined)	1.4	-2.4
13	CO[C@@H]1CN(C)C(=O)c2ccc(NC(=O)C3CC3)cc2OC[C@H](C)N(C(C)=O)C[C@H]1C	-6.9	6.2
14	CCS(=O)(=O)NC[C@@H]1[C@@H](c2ccccc2)[C@@H](CO)N1CC1CCCC1	2.4	7.9
15	C[C@H]1CN([C@@H](C)CO)C(=O)c2cc(NC(=O)CCC(F)(F)F)ccc2O[C@H]1CN(C)S(=O)(=O)c1ccc(Cl)cc1	-14.0	-12.0
16	C[C@@H]1CN([C@H](C)CO)C(=O)Cc2cc(NC(=O)Cc3cn(C)c4ccccc34)ccc2O[C@@H]1CN(C)S(=O)(=O)c1ccccc1	12.7	8.6
17	C[C@H](CO)N1C[C@H](C)[C@@H](CN(C)C(=O)CN(C)C)Oc2ncc(C#Cc3cccnc3)cc2C1=O	10.8	12.3
18	O=C(C[C@H]1CC[C@@H]2[C@H](COC[C@@H](O)CN2C(=O)Nc2cccc(Cl)c2)O1)N1CCCCC1	-6.6	-17.2
19	O=C(CC1CC1)Nc1ccc2c(c1)[C@H]1C[C@H](CC(=O)NC3CCCC3)O[C@@H](CO)[C@H]1O2	6.9	0.4
20	COc1ccc(S(=O)(=O)N(C)C[C@@H]2Oc3ncc(C#CC4(O)CCCC4)cc3C(=O)N([C@@H](C)CO)C[C@H]2C)cc1	-24.2	-10.5
21	COc1cccc(-c2cn(CC[C@@H]3CC[C@H](NC(C)=O)[C@H](CO)O3)nn2)c1	8.3	10.4
22	COc1ccc(S(=O)(=O)N[C@H]2C=C[C@H](CC(=O)NCc3ccccc3F)O[C@H]2CO)cc1	9.4	8.2
23	C[C@@H]1CN([C@@H](C)CO)C(=O)c2cc(Br)cnc2O[C@@H]1CN(C)Cc1cccc(F)c1	13.5	12.5
24	C[C@@H]1CCCCO[C@@H](CN(C)C(=O)Nc2ccc3c(c2)OCO3)[C@H](C)CN([C@H](C)CO)C(=O)c2cc(NC(=O)Nc3ccccc3)ccc2O1	-33.3	-27.6
25	CN1CCN(C(=O)C[C@@H]2CC[C@H]3[C@@H](COC[C@@H](O)CN3C(=O)Nc3cc(Cl)cc(Cl)c3)O2)CC1	-3.2	4.7
26	CNC[C@@H]1Oc2ccc(NS(=O)(=O)c3ccc(C)cc3)cc2CC(=O)N([C@@H](C)CO)C[C@@H]1C	3.1	0.9
27	C[C@@H](NC(=O)C[C@H]1CC[C@H](NS(=O)(=O)c2cccc(F)c2)[C@H](CO)O1)c1ccccc1	12.2	2.5
28	COc1ccccc1NC(=O)N1CCCCN2[C@H](CO)[C@H](c3ccc(-c4cccc(F)c4)cc3)[C@H]2C1	?	nt
29	C[C@@H]1CCCCO[C@@H](CN(C)C(=O)c2ccccc2)[C@H](C)CN([C@@H](C)CO)C(=O)c2cc(NC(=O)Nc3ccc4c(c3)OCO4)ccc2O1	12.4	2.0
30	CO[C@@H]1CN(C)C(=O)c2cc(NC(=O)C3CCCC3)ccc2OC[C@@H](C)N(CCC(F)(F)F)C[C@@H]1C	-27.4	-17.0
31	Cc1ccc(OC(=O)N(C)C[C@H]2OCc3ccccc3-c3c(n(C)c4ccccc34)C(=O)N([C@H](C)CO)C[C@@H]2C)cc1	?	nt
32	C[C@@H]1CCCCO[C@H](CN(C)C(=O)CCC(F)(F)F)[C@@H](C)CN([C@@H](C)CO)C(=O)c2cc(NC(=O)CCC(F)(F)F)ccc2O1	-3.4	2.4
33	C[C@@H]1CCCCO[C@@H](CN(C)C(=O)Nc2ccc(C(F)(F)F)cc2)[C@@H](C)CN([C@H](C)CO)C(=O)c2cc(NC(=O)CCCCCC(=O)Nc3ccccc3N)ccc2O1	28.7	13.4
34	C[C@@H]1CN([C@H](C)CO)S(=O)(=O)c2ccc(-c3cncnc3)cc2O[C@H]1CN(C)C(=O)C1CCCCC1	23.8	16.9
35	COCC(=O)Nc1ccc2c(c1)[C@@H]1C[C@@H](CC(=O)NCc3cccnc3)O[C@H](CO)[C@@H]1O2	-2.1	-2.2
36	CNC[C@H]1Oc2c(NC(=O)Nc3ccc4c(c3)OCO4)cccc2C(=O)N([C@H](C)CO)C[C@H]1C	12.9	12.4
37	O=C(NCC[C@H]1CC[C@H](NS(=O)(=O)Cc2ccccc2)[C@H](CO)O1)C1CC1	4.8	1.6
38	O=C(NCC[C@@H]1CC[C@@H](NS(=O)(=O)c2cccc(F)c2)[C@@H](CO)O1)Nc1cc(F)ccc1F	-11.9	-5.3
39	C[C@@H]1CCCCO[C@H](CN(C)Cc2ccc(Cl)c(Cl)c2)[C@@H](C)CN([C@H](C)CO)C(=O)c2cc(NC(=O)C3CCCCC3)ccc2O1	-15.7	-0.7
40	COc1ccc2c3c([nH]c2c1)[C@@H](CO)N(C(=O)C1CCOCC1)CC31CN(C(=O)NC(C)C)C1	8.3	8.9

Compound profiles, from the list above. Order of screens: Vaccinia stage	Vaccinia stage Venus
C[C@@H]1CCCCO[C@H](CN(C)Cc2ccc(Cl)c(Cl)c2)[C@@H](C)CN([C@H](C)CO)C(=O)c2cc(NC(=O)C3CCCCC3)ccc2O1 as listed: -15.7	-0.7
CNC[C@H]1Oc2c(NC(=O)Nc3ccc4c(c3)OCO4)cccc2C(=O)N([C@H](C)CO)C[C@H]1C as listed: 12.9	12.4
COc1ccc2c3c([nH]c2c1)[C@@H](CO)N(C(=O)C1CCOCC1)CC31CN(C(=O)NC(C)C)C1 as listed: 8.3	8.9
COCC(=O)Nc1ccc2c(c1)[C@@H]1C[C@@H](CC(=O)NCc3cccnc3)O[C@H](CO)[C@@H]1O2 as listed: -2.1	-2.2

(next part)
#	SMILES	Vaccinia stage	Vaccinia stage Venus
41	CC(C)NC(=O)N(C)C[C@H]1Oc2ccc(NC(=O)CCN3CCOCC3)cc2C(=O)N([C@H](C)CO)C[C@H]1C	9.6	14.3
42	CCCN(C)C[C@H]1OCCCC[C@@H](C)Oc2ccc(NC(=O)Nc3ccccc3)cc2C(=O)N([C@H](C)CO)C[C@@H]1C	-7.0	-6.0
43	COc1ccc(S(=O)(=O)Nc2ccc3c(c2)C(=O)N([C@@H](C)CO)C[C@H](C)[C@H](CN(C)S(=O)(=O)c2ccccc2)O3)cc1	19.4	26.3
44	CCC(=O)N1CC2(C1)CN(C(=O)NC1CCCC1)[C@H](CO)c1c2c2ccc(OC)cc2n1C	7.6	6.1
45	CCCNC(=O)C[C@@H]1CC[C@H]2[C@@H](COc3ccc(NC(=O)NCC)cc3C(=O)N2C)O1	11.7	19.4
46	COc1ccc(S(=O)(=O)N[C@@H]2CC[C@@H](CC(=O)NCc3ccccc3F)O[C@@H]2CO)cc1	7.6	5.0
47	CCCNC(=O)N1[C@@H](C#N)[C@H](c2ccc(C#Cc3cccc(F)c3)cc2)[C@@H]1CO	-24.9	-22.1
48	O=C(NC1CCCCC1)N1[C@@H]2CNC[C@H]1C2c1ccc(-c2cccnc2)cc1 (some centres undefined)	24.8&3.9	6.5&10.5
49	C[C@@H]1CN([C@@H](C)CO)C(=O)c2cccc(NS(C)(=O)=O)c2O[C@@H]1CN(C)Cc1ccncc1	32.1	5.8
50	C[C@H](CO)N1C[C@H](C)[C@@H](CN(C)Cc2ccncc2)Oc2ncc(C#CC3CCCCC3)cc2C1=O	32.3	16.3
51	COc1cccc(S(=O)(=O)N2C[C@@H]3N[C@H](C2)C3c2ccc(/C=C/c3ccccc3)cc2)c1 (some centres undefined)	7.9&-11.1	0.8&-11.3
52	COCC(=O)N1CC(=O)N2[C@H](CO)[C@H](c3ccc(C#CC(C)C)cc3)[C@@H]2C1	17.7	14.7
53	O=C(c1ccncc1)N1CC2(C1)[C@H](c1ccccc1)[C@H](CO)N2CC1CCCC1	11.4	7.1
54	C[C@@H]1CCCCO[C@H](CN(C)S(=O)(=O)c2ccccc2)[C@H](C)CN([C@@H](C)CO)C(=O)c2cc(NC(=O)c3ccccc3)ccc2O1	-15.9	-11.3
55	COc1cccc(-c2cnc3c(c2)C(=O)N([C@H](C)CO)C[C@H](C)[C@H](CN(C)C(=O)Nc2ccccc2F)O3)c1	-13.0	-10.7
56	CC(C)NC(=O)N(C)C[C@@H]1Oc2cc(C#CCN(C)C)ccc2S(=O)(=O)N([C@H](C)CO)C[C@H]1C	7.9	8.0
57	O=C(C[C@@H]1C=C[C@@H](NC(=O)c2cccnc2)[C@@H](CO)O1)NCCN1CCCCC1	8.8	-8.2
58	C[C@H]1CCCCO[C@@H](CN(C)C(=O)Nc2ccc3c(c2)OCO3)[C@@H](C)CN([C@@H](C)CO)C(=O)c2cc(NC(=O)CCC(F)(F)F)ccc2O1	-16.6	-14.9
59	CO[C@@H]1CN(C)C(=O)c2ccc(NC(=O)Nc3ccccc3F)cc2OC[C@H](C)N(C)C[C@H]1C	-5.1	-10.6
60	CO[C@@H]1CN(C)C(=O)c2ccc(NS(=O)(=O)CC(F)(F)F)cc2OC[C@@H](C)N(C)C[C@H]1C	10.3	4.8
61	O=C(Nc1ccccc1)N1CC(=O)N2[C@@H](CO)[C@@H](c3ccc(C#CC4CCCC4)cc3)[C@@H]2C1	?	nt
62	C[C@H](CO)N1C[C@H](C)[C@@H](CN(C)C(=O)c2ccccc2)OCc2ccccc2-c2ccccc2C1=O	35.7	17.4
63	O=C(NCC[C@@H]1CC[C@@H](NS(=O)(=O)c2ccc(F)cc2)[C@H](CO)O1)Nc1ccc(F)cc1	-12.9	-9.5
64	C[C@@H]1CN([C@@H](C)CO)S(=O)(=O)c2ccc(-c3cccc(F)c3)cc2O[C@H]1CN(C)C(=O)Nc1cc(F)ccc1F	?	nt
65	CCC(=O)NC[C@@H]1[C@@H](c2ccc(C3=CCCCC3)cc2)[C@@H](CO)N1C(=O)C1CC1	0.3	-1.8
66	COCC(=O)N(C)C[C@H]1Oc2cc(C#CCC(C)C)ccc2S(=O)(=O)N([C@@H](C)CO)C[C@@H]1C	9.7	1.5
67	C[C@H](CO)N1C[C@H](C)[C@@H](CN(C)Cc2ccc(C(=O)O)cc2)Oc2c(NS(=O)(=O)c3ccc(F)cc3)cccc2C1=O	20.3	9.2
68	CCNC(=O)C[C@H]1CC[C@@H]2[C@@H](COc3ccc(NC(=O)Nc4ccc(F)cc4)cc3C(=O)N2C)O1	19.3	10.7
69	COCC(=O)N(C)C[C@@H]1Oc2ncc(C#CCC3CCCC3)cc2C(=O)N([C@@H](C)CO)C[C@H]1C	8.7	4.7
70	CN1CCN(C(=O)C[C@H]2CC[C@H](NS(=O)(=O)c3cccc(F)c3)[C@H](CO)O2)CC1	11.2	6.3
71	N#C[C@H]1[C@H](c2ccc(C3=CCCC3)cc2)[C@@H](CO)N1C(=O)c1ccccn1	9.0	5.5
72	COc1ccccc1-c1ccc([C@@H]2[C@H]3CN(C(=O)CN4CCOCC4)CCCCN3[C@H]2CO)cc1	-3.3	-4.5
73	CC(=O)N1[C@@H]2Cn3c(ccc(-c4ccccc4)c3=O)[C@H]1[C@@H](C(=O)Nc1ccccc1)[C@@H]2CO	10.9	13.1
74	Cc1ccccc1-c1ccc2c(c1)O[C@@H](CN(C)C(=O)c1ccccn1)[C@@H](C)CN([C@@H](C)CO)S2(=O)=O	-7.1	-2.5
75	C[C@@H]1CN([C@@H](C)CO)C(=O)c2cc(NC(=O)CCN3CCOCC3)ccc2O[C@H]1CN(C)C	8.3	1.7
76	CO[C@@H]1CC[C@@H]2CCOc3ccc(C#N)cc3C(=O)N(C)C[C@@H](c3ccccc3)CC(=O)N(C)C[C@H]1O2	16.8	10.4
77	Cc1ccccc1CN(C)C[C@@H]1OCc2cn(nn2)CCCC(=O)N([C@H](C)CO)C[C@@H]1C	0.9	-4.6
78	O=C(Nc1ccc(F)cc1)N1CCCCN2[C@H](CO)[C@H](c3ccc(-c4cccc(F)c4)cc3)[C@@H]2C1	?	nt
79	CCC(=O)N(C)C[C@H]1Oc2cc(C#CC3CC3)ccc2S(=O)(=O)N([C@H](C)CO)C[C@H]1C	6.6	2.6

Some of the compounds tested; count on the stated rates, not on these rows.
